Bioassay records as filed in PubChem BioAssay.
AID504770 – E. coli YBA685 growth inhibition, screen for V. cholerae RctB inhibitors; E. coli YBA685 rctB-dependent plasmid, OD600 growth, 3 h; stronger effect = lower value; z-score (no concentration beside the values); 130,000 compounds, 0.27% hits;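 active = z-score under -2 on both plates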;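 also: wells of about 30 µL received 100 nL stock; score is relative to mean and SD of the test wells; the first replicate is given; strong numbers were not always called active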
CapD inh – CapD enzyme inhibition. purified CapD enzyme, fluorescence intensity read-out; stronger effect = lower value; some hits fall short of the stated cut. z-score (no concentration beside the values). 140,000 compounds, 0.23% hits;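 active = z-score under -4 in either of two replicates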;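 also: stock transfer was 100 nL into about 40 µL; score is relative to mean and spread of the plate; one replicate is shown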
Starred values were filed as active, the others as inactive; x = no result given.

Values run as follows: CapD inh	AID504770
CCCN(CCC)C(=O)c1sc2nc(C)nc(N3CCCCC3)c2c1C
  -0.39	x
O=C(COc1ccc2c(=O)c(-c3ccccc3)coc2c1)N1CCCCC1
  -0.33	1
O=C(/C=C/c1ccccc1)OCc1ncc(-c2ccccc2)o1
  x	0.75
CCNC(=S)Nc1cc(OCC)c(N2CCOCC2)cc1OCC
  -0.32	-0.9
Cn1c(CC(=O)O)c(S(C)(=O)=O)c2ccccc21
  0.31	-0.4
CCOc1ccc(OCC)c(S(=O)(=O)N2CCN(C34CC5CC(CC(C5)C3)C4)CC2)c1
  x	-0.3
CCN(c1ccccc1)c1cc(N(C)C)c2nonc2c1[N+](=O)[O-]
  0.32	x
O=c1cc(C(F)(F)F)[nH]c2ccccc12
  32	x
COC(=O)CN(C(=O)c1ccccc1[N+](=O)[O-])C(C)(C)C
  -0.6	x
Cc1cc(C)[n+]2c(-c3ccccc3)csc2n1
  0.28	-1
CCOC(=O)C/C(C)=N/c1ccnn1-c1ccccc1
  -0.15	-1.1
CCOC(=O)Cn1nnnc1CN(CCc1ccc(OC)c(OC)c1)Cc1cc2c(C)ccc(C)c2[nH]c1=O
  x	0.35
COc1ccc(N2CCN(CCNc3nc4ccccc4n4c(C)nnc34)CC2)cc1
  -0.54	0.55
CN1CCN(C(=O)C2C3C=CC(C3)C2C(=O)O)CC1 (centres undefined)
  x	-0.4
O=c1cc(CSc2nnnn2-c2ccccc2)nc(Nc2ccc(F)cc2)[nH]1
  -0.34	-3.3*
O=C(NCCCc1nc2ccccc2[nH]1)c1cccs1
  0.54	0.5
NC(=O)C1(N2CCCCC2)CCN(c2ncnc3scc(-c4ccccc4)c23)CC1
  -0.7	x
CCOC(=O)C1=C(N)OC2=C(C(=O)CCC2)C1c1ccc(OC)cc1 (centres undefined)
  -0.56	-0.2
COc1ccc(Nc2nc3ccc(C)cc3nc2Nc2ccc(OC)cc2)cc1
  0.1	0.05
CCOC(=O)C1=NN(c2cccc(Cl)c2)C2(S1)c1ccccc1C(c1cc(C)ccc1C)=NN2c1ccccc1 (centres undefined)
  -0.18	x
CCOC(=O)C(C)Sc1ncnc2c1nnn2-c1ccc(OC)cc1 (centres undefined)
  1.3	-0.8
Cc1ccc(S(=O)(=O)N=S(Cc2ccccc2)Cc2ccccc2)cc1
  -0.63	1.5
Nc1c(C(=O)Nc2ccccc2)sc2nc3c(cc12)C(=O)CCC3
  -0.56	-0.35
O=C(O)CCCC(=O)N1CCc2ccccc21
  0.085	-0.25
FC(F)(F)c1ccc(-c2[nH]ncc2-c2ccncc2)cn1
  -0.07	x
NCc1nc2cc3ccccc3cc2[nH]1
  30	-0.1
Cc1cccc(N(C2C=CS(=O)(=O)C2)S(=O)(=O)c2ccccc2)c1 (centres undefined)
  -0.4	-0.9
Oc1ccc(C(=S)N2CCN(Cc3ccccc3)CC2)cc1
  0.16	-0.4
OC1(c2ccccc2)CCC2C1CCC2(O)c1ccccc1 (centres undefined)
  -0.04	2.4
O=C(O)CCN(Cc1ccco1)S(=O)(=O)c1cccc2nsnc12
  -0.055	0.7
Cc1ccc(Cn2ccc(NC(=O)c3cc(-c4ccc(F)cc4)on3)n2)cc1
  -0.86	-1
O=C(NCCN1CCOCC1)c1ccc2c(Cl)c3c(nc2c1)CCC3
  -0.45	1.4
CCOC(=O)C1CCN(c2nc(-c3ccccc3F)nc3ccccc23)CC1
  -0.02	x
COC(=O)C1=C(N)CC(c2ccccc2)S1 (centres undefined)
  0.56	0.95
O=C(COc1ccc(Cl)cc1Cl)Nn1c(-c2cccc([N+](=O)[O-])c2)nc2ccccc2c1=O
  0.03	x
Oc1ccc(NCc2cccs2)cc1
  1.9	-0.35
CN1C(=O)c2ccccc2N2C(=O)CCC12C(=O)OCc1ccc(C#N)cc1 (centres undefined)
  x	-0.2
CC(C)(C)C(=O)Nc1nc(COc2ccccc2)cs1
  -0.45	0.75
CCOC(=O)Cc1csc(NC(=O)Cn2c(=O)oc3ccccc32)n1
  0.01	-0.6
CN(Cc1nnc(-c2ccc(Cl)cc2)o1)S(=O)(=O)c1ccc2ccccc2c1
  x	-1.8
O=C(O)c1nnc(Cl)c2ccccc12
  x	-0.2
CN(C)S(=O)(=O)c1ccc2oc(SCN3C(=O)c4ccccc4C3=O)nc2c1
  x	-0.1
Cc1cccc(C(=O)NCCCn2ccnc2)c1
  -0.26	-0.65
O=[N+]([O-])c1ccc(OCCCOc2ccc([N+](=O)[O-])cc2)cc1
  -0.39	x
O=C1NC(=O)C2(OC(=O)C(=O)/C2=C(/O)c2ccccc2)C(=O)N1
  -2.5	1.1
COc1ccc(C2=NN3C(C2)c2cc(OC)ccc2OC3c2ccc(SC)cc2)cc1 (centres undefined)
  0.01	x
O=C(CSc1ccccn1)NCC(=O)c1ccccc1
  -0.2	1.1
COc1ccc(SCC(=O)N(c2ccccc2)C2CCS(=O)(=O)C2)cc1 (centres undefined)
  x	-1.5
CS/C(N)=N/C(N)=Nc1ccc(Cl)cc1
  0.73	-0.35
Cc1cc(C)c(N(CC(O)Cn2c3ccccc3c3ccccc32)S(C)(=O)=O)c(C)c1 (centres undefined)
  0.23	0.5
Cc1cccc(N(C)S(=O)(=O)c2c(C(=O)N3CCCCC3)c(C)n(C)c2C)c1
  -0.15	-0.4
COc1ccc2c(c1)c(CC(=O)Nc1nnc(-c3ccccc3)o1)c(C)n2C(=O)c1ccc(Cl)cc1
  x	-0.75
Cc1ccc(NC(=O)CSc2ncn(-c3ccccc3)n2)cc1
  x	-0.95
COc1ccc(Oc2ccc(C(C)=O)cc2)cc1
  -0.24	x
CCOc1ccc(CCNS(=O)(=O)c2cc(Br)ccc2Br)cc1
  -0.32	x
Cn1c(C(C#N)C(=O)c2ccc(Cl)c(S(=O)(=O)N3CCCCCC3)c2)nc2ccccc21 (centres undefined)
  x	-0.35
Cc1ccc(C(=O)N/C(=C/c2ccco2)C(=O)Nc2nccs2)cc1
  x	0.8
Cc1cc(=O)oc2cc(NC(=S)NCCN3CCCCC3)ccc12
  39	-0.9
O=c1onc(-c2ccccc2)c2ccccc12
  -0.47	x
Cc1cc(=O)[nH]c(SCC(=O)C(C)(C)C)n1
  0.48	x

Further structures:
Values run as follows: CapD inh	AID504770
O=C1NC(=O)C(=Cc2ccco2)C(=O)N1
  -0.57	x
S=C(SCc1ncon1)N1CCSCC1
  -0.95	-0.25
CCOC(=O)c1nnn(CC(=O)Nc2ccc(C)cc2Cl)c1C(=O)OCC
  -0.91	-0.4
CCc1ccc(S(=O)(=O)N(C(=O)c2ccccc2)c2ccc3oc(C)c(C(C)=O)c3c2)cc1
  -0.11	x
C=CCn1c(SCC(=O)Nc2ccc(C(=O)OC(C)C)cc2)nnc1-c1ccco1
  -0.43	-0.65
CC(=O)N[C@@H](CCCN=C(N)N)C(=O)O
  -0.11	x
Nn1c(=O)c2ccccc2n2c(SCC(=O)N(c3ccccc3)c3ccccc3)nnc12
  0.29	-0.3
COc1ccc(NC(=O)CSc2nc(N)c(C#N)c(-c3ccc(F)cc3)c2C#N)cc1
  0.08	x
C=CCn1c(SCC(=O)N(C)C2CCS(=O)(=O)C2)nc2ccccc2c1=O (centres undefined)
  x	-0.35
OCCNc1ncnc2sc3c(c12)CCCC3
  2.2	-0.2
O=C(NCC(c1ccco1)N1CCCC1)c1ccc2ccccc2n1 (centres undefined)
  x	0.45
NC(N)=NC(N)=Nc1c(F)cccc1F
  0.4	x
CCC(=O)Nc1cccc(Oc2nc(C)cc(C)c2C#N)c1
  -0.24	-0.7
CCCCN(CC)C(=O)c1cn(CC)c(=O)c2cc(OC)c(OC)cc12
  10	-0.5
C=CCn1c(SCC#N)nnc1-c1ccc(Br)cc1
  x	-0.5

Brought forward from above: 5 entries, followed by the next part.
Values run as follows: CapD inh	AID504770
O=C(NCC(c1ccco1)N1CCCC1)c1ccc2ccccc2n1 (centres undefined)
  x	0.45
NC(N)=NC(N)=Nc1c(F)cccc1F
  0.4	x
CCC(=O)Nc1cccc(Oc2nc(C)cc(C)c2C#N)c1
  -0.24	-0.7
CCCCN(CC)C(=O)c1cn(CC)c(=O)c2cc(OC)c(OC)cc12
  10	-0.5
C=CCn1c(SCC#N)nnc1-c1ccc(Br)cc1
  x	-0.5
O=C(NCCCc1ccccc1)C1c2ccccc2-c2ccccc21
  0.18	2.3
Cc1cc(C)nc(NS(=O)(=O)c2ccc(NC(=O)CSc3nc(-c4ccccc4)cc(C(F)(F)F)c3C#N)cc2)n1
  2.4	x
COc1ccc(-c2nnc(SCC(N)=O)n2C2CCCCC2)cc1OC
  x	-0.2
CCC1(CC)Cc2ccccc2C(C2=C(O)CCCC2=O)=N1
  -0.76	1.8
COc1ccc(Cc2nnc(SCC(N)=O)n2Cc2ccccc2)cc1
  -0.81	-0.6
CCN=C1S/C(=C\c2cn(CC(=O)Nc3cccc(C)c3)c3ccccc23)C(=O)N1CC
  -0.065	0.9
CCOc1ccc(C2C(C#N)=C(N)N(c3ccc([N+](=O)[O-])cc3)C3=C2C(=O)CC(C)(C)C3)cc1 (centres undefined)
  -0.57	x
CCn1c(=O)cc(OCC(=O)Nc2cccnc2)c2ccccc21
  0.72	0.25
CCc1c(SCC(=O)O)nc2ccccc2c1C
  x	0.1
CN(C(=O)C1CCCN(S(=O)(=O)c2cccc3nsnc23)C1)c1ccc(Br)cc1 (centres undefined)
  -0.66	-0.45
CN(C)c1ccc(CN2CCC(NC(=O)OCc3ccc(/C=C/c4ccccc4)cc3)C2)c2ccccc12 (centres undefined)
  71	x
O=C(Cn1cnc2ccccc2c1=O)NCC(=O)Nc1cnc2ccccc2c1
  0.15	x
CCC1(C)Cc2ccccc2-c2c1c(=O)n(-c1ccc(C)cc1)c1nncn21 (centres undefined)
  0.83	1
S=C(NC1CCCCC1)N1CCN(Cc2ccc3c(c2)OCO3)CC1
  0.01	-1
Cc1onc(-c2ccccc2)c1C(=O)Sc1ccc(C(F)(F)F)cn1
  0.38	-2.5

Reprinted from the part before: three entries; new compounds follow.
Values run as follows: CapD inh	AID504770
CCC1(C)Cc2ccccc2-c2c1c(=O)n(-c1ccc(C)cc1)c1nncn21 (centres undefined)
  0.83	1
S=C(NC1CCCCC1)N1CCN(Cc2ccc3c(c2)OCO3)CC1
  0.01	-1
Cc1onc(-c2ccccc2)c1C(=O)Sc1ccc(C(F)(F)F)cn1
  0.38	-2.5
O=C(c1ccccc1Cl)N1CCN(c2ccc(N3CCCCCC3)nn2)CC1
  x	0.7
O=C1c2ccccc2C(=O)N1CCc1nn[nH]n1
  -0.42	-0.05
CCOC(=O)c1sc(SC)c2c1CC(c1ccccc1)CC2=O (centres undefined)
  0.05	x
COC(=O)C1=C(C)NC2=C(C(=O)c3ccccc32)C1c1ccc(Br)o1 (centres undefined)
  0.57	0.9
CC(=O)Nc1ccc(NC(=O)C(C)n2c(C)c3cnn(-c4ccccc4)c(=O)c3c2C)cc1 (centres undefined)
  0.81	-0.35
CC(C)c1ccccc1N=Cc1ccc2c(c1)OCO2
  -0.49	-0.45
COc1ccc(C(=O)N(CN2CCCC2=O)c2nccs2)cc1OC
  x	-1.6
O=C(N/N=C1/CCS(=O)(=O)c2ccc(F)cc21)c1ccccn1
  x	0
COc1ccc(-c2cc(=Nc3ccc(C)cc3C)c3cc(O)ccc3o2)cc1
  2.6	-0.45
O=C(NCCCN1CCOCC1)c1nn2c(C(F)(F)F)cc(-c3cccs3)nc2c1Cl
  0.27	x
CCCN(CCC)S(=O)(=O)c1ccc(C(=O)Nc2c3c(nn2-c2ccccc2C)CSC3)cc1
  0.095	x
CCCC1c2ccsc2CCN1C(=O)c1cc(OC)cc(OC)c1 (centres undefined)
  -0.92	-0.3
CCOC(=O)c1c(C)oc2nc(CN3c4cccc5cccc(c45)S3(=O)=O)nc(N)c12
  x	0.45
COc1ccc(NCc2nc(-c3ccc(C)cc3)no2)cc1OC
  0.2	0.85
CC1CCCCN1C(=O)C12CC3CC(CC(C3)C1)C2 (centres undefined)
  -0.35	1.1
O=C(NC1CC1)c1cc2n(n1)CCCN(Cc1ccccc1)C2=O
  0.15	-1.1
N#Cc1cccc(NC(=O)/C=C/c2cccc3ccccc23)c1
  7.6	0.85
Cc1ccccc1-n1nnnc1SCC(=O)N/N=C/c1ccccc1O
  x	0.1
CCC(Oc1ccccc1)C(=O)Nc1nncs1 (centres undefined)
  0.2	-0.45
O=C(O)/C=C/C(=O)NC1Cc2ccccc2C1
  -0.09	-1
Cc1nc(C(F)(F)F)ccc1C(=O)NN1CCOCC1
  0.015	-0.8
Cc1ccccc1-c1noc(CCC(=O)NC(C)C)n1
  0.69	0.1
COc1ccc(NCC(=O)n2c(C)c(C)c3ccccc32)cc1
  -0.15	0.2
Cc1ccc(C2=NN(C(=O)CCC(=O)O)C(Cc3cc4cccc(C)c4nc3Cl)C2)cc1 (centres undefined)
  0.2	x
CCCCCCc1cc2cc(-c3nnc(-c4ccccc4)o3)c(=O)oc2cc1O
  28	x
COc1ccc(OCC(=O)N2N=C3/C(=C/c4ccco4)CCCC3C2c2ccco2)cc1 (centres undefined)
  x	-0.9
COc1c[nH]n(C2CCCCC2)c(=O)c1=O
  0.015	-0.7
CCOC(=O)c1cc2c(n(-c3ccc(OC)cc3)c1=O)CCCC2=O
  x	-0.95
CC(=O)NC(c1ccccc1)c1nc2ccccc2[nH]1 (centres undefined)
  -0.4	0.5
COc1ccc(C2C(C#N)=C(SC)NC(C)=C2C(=O)Nc2ccccc2C)cc1OC (centres undefined)
  2	0.7
Cc1ccc(C)c(N2CCN(C(=O)CC3(CC(=O)O)CCCC3)CC2)c1
  0.12	x
O=C1CC(C(=O)Nc2ccc(Cl)cc2)N=C(N2CCc3ccccc32)N1 (centres undefined)
  x	1.6
